Compound activity as filed in PubChem.
PKD1 kinase inh = inhibitors of human PKD1 kinase, biochemical, fluorescence polarization | hit rate 0.056% among 200,000 | AID 797, 2007 | inhibition, %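 (about 10 µM by stock and volumes)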 | PKD1 kinase fluorescence polarization assay;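 active = inhibition of 50% or more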;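 note: controls were vehicle for no effect and a reference inhibitor for full effect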
Target sequence (Q15139 whole entry, looked up): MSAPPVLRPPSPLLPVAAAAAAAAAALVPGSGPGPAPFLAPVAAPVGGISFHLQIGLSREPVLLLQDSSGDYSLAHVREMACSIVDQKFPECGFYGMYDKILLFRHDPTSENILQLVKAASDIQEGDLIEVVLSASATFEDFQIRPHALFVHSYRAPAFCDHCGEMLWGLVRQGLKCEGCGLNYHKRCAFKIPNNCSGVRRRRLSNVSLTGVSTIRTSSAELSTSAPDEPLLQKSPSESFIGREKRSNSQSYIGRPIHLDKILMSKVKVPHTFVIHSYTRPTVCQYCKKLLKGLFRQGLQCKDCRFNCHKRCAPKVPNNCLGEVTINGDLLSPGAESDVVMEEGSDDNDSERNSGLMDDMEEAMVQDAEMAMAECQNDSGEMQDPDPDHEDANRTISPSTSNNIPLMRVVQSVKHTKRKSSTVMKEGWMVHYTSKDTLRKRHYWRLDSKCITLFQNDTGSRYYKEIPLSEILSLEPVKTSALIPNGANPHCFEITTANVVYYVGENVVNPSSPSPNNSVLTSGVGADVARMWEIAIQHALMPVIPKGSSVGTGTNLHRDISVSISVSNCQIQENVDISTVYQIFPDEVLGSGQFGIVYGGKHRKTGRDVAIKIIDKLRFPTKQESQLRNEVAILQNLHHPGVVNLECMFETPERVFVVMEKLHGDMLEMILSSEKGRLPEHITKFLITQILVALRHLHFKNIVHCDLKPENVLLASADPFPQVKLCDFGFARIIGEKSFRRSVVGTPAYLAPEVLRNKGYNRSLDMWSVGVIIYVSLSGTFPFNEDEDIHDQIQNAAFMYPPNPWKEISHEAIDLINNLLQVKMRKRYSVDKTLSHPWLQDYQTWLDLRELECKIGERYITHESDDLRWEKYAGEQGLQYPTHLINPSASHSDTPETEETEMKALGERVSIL
HSV replic up = enhancers of HSV replication in host cells, fold increase, host cell viability; HSV replication augmentation in cells; maximum fold increase; hit rate 0.005% among 220,000; AID 1956, 2009;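 active = peak rise of 1.5-fold or more in the series; inconclusive = self-fluorescent or not available for retest; tested in PC3 cells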;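 note: first round at 10 µM; read as green reporter fluorescence; hits show the peak of a series up to 25 µM; 1 = signal of infected wells without compound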
RGS16-Gao HTS = modulators of RGS16 binding to Galphao, primary screen, biochemical, human proteins, multiplexed bead flow cytometry. AID 1441, 2008. binding response (% of control), % at 10 µM. hit rate 0.38% among 220,000. bead-based flow cytometry RGS16-Galphao binding, fluorescence; actives lie on both sides. Regulator of G-protein signaling 16 (Homo sapiens) + Guanine nucleotide-binding protein …;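 active = below 25% or above 175%, edge rows of some plates excepted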;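 note: Galphao activated by GDP with aluminum fluoride before binding; 100% = wells without compound and 0% = beads without RGS; some results beyond the cut were filed as inactive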
GALR2 agonist = GALR2 receptor agonists, primary screen, cell-based | GALR2-expressing cells, agonist activation read-out | activation, %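 (tested at 5 µM)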 | hit rate 0.48% among 140,000 | AID 803, 2007;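 active = above mean plus 3 SD of all compounds, about 5% in these data, not always enough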;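 note: 0% = vehicle buffer wells and 100% = reference agonist at full effect; tested in CHO reporter cells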
Insulin prom inh = inhibitors of insulin promoter-driven GFP, primary screen, imaging, TRM-6 cells (human fetal islet line), eGFP reporter, cell count; inhibition, % at 2 µM; reporter expression induced with tamoxifen; AID 1273, 2008; hit rate 0.9% among 130,000;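 active = inhibition above the mean plus 3 SD, with well images judged a real hit on visual review, cut at about 60% in these data, passing the limit was not always enough; inconclusive = inhibition over the cutoff but images rejected on review; inactive = inhibition not above the cutoff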
Insulin prom inh cell count = also measured in Insulin prom inh; calls as there; normalized cell count, %; measured here: cell count, toxicity; reference of the scale not given here;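 cells exposed to compound for 48 h; stained nuclei by imaging scaled within each plate; lower means fewer cells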
HSV replic up primary fold = recorded beside HSV replic up, whose call it bears; fold increase; compound at 10 µM; measured here: primary screen fold increase 10 uM; tested in PC3 cells;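 GFP signal in the first replicate; 1 = infected wells without compound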
* marks the source's active call; other numbers are inactive results; i = inactive; ? = inconclusive; . = not tested or not shown; & = joins results of further samples. Only part of the results is shown; the hit share may differ from the screen's.

SMILES | PKD1 kinase inh | HSV replic up | HSV replic up primary fold | RGS16-Gao HTS | GALR2 agonist | Insulin prom inh | Insulin prom inh cell count
N#CC(C#N)=Cc1ccc(N2CCOCC2)cc1 | . | i | 1 | 100 | . | . | .
CCc1ccc2nc(N3CCC(C(=O)N4CCC5(CC4)OCCO5)CC3)sc2c1 | 2 | i | 0.98 | 97 | . | -14 | 123
C[n+]1c(-c2ccccc2)cc(CCCCc2cc(-c3ccccc3)[n+](C)c(-c3ccccc3)c2)cc1-c1ccccc1 | 1 | i | 0.93 | 104 | . | . | .
CCOC(=O)C1CCCCC12C(C#N)=C(N)Oc1n[nH]c(C)c12 (stereo not drawn) | -18 | i | 0.62 | 99 | -1.7 | -26 | 61
C1=C(c2ccccc2)CCNC1 | . | i | 1 | 102 | . | . | .
CN1CCc2nc3sc(C(=O)NC(C)(C)C)c(N)c3cc2C1 | -5 | i | 0.87 | 101 | -0.1 | -31 | 276
Cc1ccc2nc(N3CCC(C(=O)N4CCC5(CC4)OCCO5)CC3)sc2c1 | -6 | i | 0.96 | 102 | 0.7 | -7 | 59
CCn1c(O)c(C=NCCc2c[nH]c3ccccc23)c(=O)[nH]c1=O | 2 | i | 0.86 | 100 | -1.1 | -22 | 230
C=CC1CN2CCC1CC2[C@@H](OC(=O)c1ccc(OC)cc1)c1ccnc2ccccc12 (stereo partly drawn) | -10 | i | 0.87 | 93 | 1.6 | -34 | 69
CCc1ccc(N2C(=O)NC(=O)/C(=C/c3cccn3CCOc3ccc(C(C)CC)cc3)C2=O)cc1 (stereo not drawn) | -2 | i | 1.2 | 99 | 0.1 | . | .
CCOP(=O)(OCC)C(NC(=O)c1ccc(C)cc1)C(Cl)(Cl)Cl (stereo not drawn) | -9 | i | 0.93 | 95 | -0.7 | . | .
CC1=[N+]([O-])C2(N)CCc3nonc3C2(O)C1 (stereo not drawn) | 8 | i | 0.95 | 101 | -0.6 | 22 | 86
Cc1cc(=O)n(-c2ccccc2)n1-c1ccccc1 | -9 | i | 1.1 | 32 | -1.4 | 26 | 88
CN1CC(C(=O)c2ccc(Cl)cc2)C(c2ccccc2F)C1 (stereo not drawn) | 2 | i | 0.98 | 102 | . | . | .
CC(Cc1cccs1)NCc1ccc(Cl)cc1 (stereo not drawn) | -3 | i | 0.95 | 103 | . | . | .
C[N+]1(C)[C@@H]2CC[C@H]1CC(OC(=O)C(CO)c1ccccc1)C2 (stereo partly drawn) | -4 | . | . | 106 | -0.8 | -36 | 119
CC1CC(OP(O)(=S)c2ccc(N(C)C)cc2NC(=O)c2cccs2)CC(C)(C)C1 (stereo not drawn) | 2 | i | 0.99 | 90 | . | . | .
CCN(CC)C(=O)c1ccc(NC(=O)Cn2nc(C)c3ccccc3c2=O)cc1 | 3 | i | 1 | 65 | -2.8 | 3 | 136
CNC(=S)N1CCn2cccc2C1c1cccnc1 (stereo not drawn) | 0 | i | 0.77 | 101 | . | 33 | 201
O=C(NC1CONC1=O)OCC(Cl)(Cl)Cl (stereo not drawn) | 13 | i | 1 | 47 | -0.2 | 46 | 174

2 neighbouring compounds already listed, for reference:
SMILES | PKD1 kinase inh | HSV replic up | HSV replic up primary fold | RGS16-Gao HTS | GALR2 agonist | Insulin prom inh | Insulin prom inh cell count
N#CC(C#N)=Cc1ccc(N2CCOCC2)cc1 | . | i | 1 | 100 | . | . | .
CCc1ccc2nc(N3CCC(C(=O)N4CCC5(CC4)OCCO5)CC3)sc2c1 | 2 | i | 0.98 | 97 | . | -14 | 123

Six compounds drawn at random from the list so far, as already listed:
SMILES | PKD1 kinase inh | HSV replic up | HSV replic up primary fold | RGS16-Gao HTS | GALR2 agonist | Insulin prom inh | Insulin prom inh cell count
Cc1ccc2nc(N3CCC(C(=O)N4CCC5(CC4)OCCO5)CC3)sc2c1 | -6 | i | 0.96 | 102 | 0.7 | -7 | 59
CNC(=S)N1CCn2cccc2C1c1cccnc1 (stereo not drawn) | 0 | i | 0.77 | 101 | . | 33 | 201
CCOP(=O)(OCC)C(NC(=O)c1ccc(C)cc1)C(Cl)(Cl)Cl (stereo not drawn) | -9 | i | 0.93 | 95 | -0.7 | . | .
C[n+]1c(-c2ccccc2)cc(CCCCc2cc(-c3ccccc3)[n+](C)c(-c3ccccc3)c2)cc1-c1ccccc1 | 1 | i | 0.93 | 104 | . | . | .
CCc1ccc(N2C(=O)NC(=O)/C(=C/c3cccn3CCOc3ccc(C(C)CC)cc3)C2=O)cc1 (stereo not drawn) | -2 | i | 1.2 | 99 | 0.1 | . | .
CN1CCc2nc3sc(C(=O)NC(C)(C)C)c(N)c3cc2C1 | -5 | i | 0.87 | 101 | -0.1 | -31 | 276

Continued:
SMILES | PKD1 kinase inh | HSV replic up | HSV replic up primary fold | RGS16-Gao HTS | GALR2 agonist | Insulin prom inh | Insulin prom inh cell count
CC(=NCCc1c[nH]c2ccccc12)c1c(O)n(Cc2ccccc2)c(=O)[nH]c1=O | . | i | 0.92 | 99 | . | . | .
COc1ccc(N2C(=O)/C(=C/c3cccs3)C(=O)NC2=S)cc1 | . | i | 0.82 | 76 | . | . | .
c1ccc(-c2[nH]c(-c3ccccc3)[n+](CC3CO3)c2-c2ccccc2)cc1 (stereo not drawn) | -11 | i | 0.79 | 94 | -0.5 | . | .
CCCCCCOc1ccc(CN2CCN(CCO)CC2)cc1 | -17 | i | 1.1 | 97 | -0.2 | -50 | 69
COc1ccc(C2N(c3cc(C)on3)C(=O)C3CCCN32)cc1 (stereo not drawn) | 3 | i | 1.3 | 97 | . | 6 | 109
N#CC(C#N)=Cc1cccnc1 | -6 | i | 1 | 100 | . | 50 | 67
C=CCn1c(O)c(C(CC)=Nc2ccc3c(c2)CCC3)c(=O)[nH]c1=O | . | i | 0.93 | 98 | . | . | .
CCC(C)OC(=O)c1c(N)n(Cc2cccs2)c2nc3ccccc3nc12 (stereo not drawn) | -3 | i | 0.84 | 102 | 1.8 | -44 | 200
CCN(CC)c1ccc(/C=C2\C(=O)NC(=O)N(Cc3ccco3)C2=O)cc1 | 2 | i | 1.1 | 108 | -0.6 | -9 | 107
COc1ccc2[nH]cc(CCN)c2c1 | -8 | i | 1.1 | 85 | 0.2 | 41 | 126
CC12CN3CC(C)(CN(C1)C3c1ccncc1)C2=O (stereo not drawn) | -9 | i | 0.93 | 110 | 0.5 | . | .
CC(Cc1ccsc1)NCc1cn[nH]c1-c1ccc(F)cc1F (stereo not drawn) | . | i | 0.93 | 99 | . | . | .
COc1cc(OC)c(OC)cc1/C=C1/C(=O)NC(=O)N(Cc2ccccc2)C1=O | . | i | 1.3 | 98 | . | . | .
N#CC1(c2ccccc2)CCN(C2CC(=O)N(c3ccc(F)cc3)C2=O)CC1 (stereo not drawn) | -8 | i | 1.1 | 102 | . | -49 | 102
CCCCCCC(=O)c1c(O)n(-c2ccccc2OC)c(=O)[nH]c1=O | -2 | i | 1.1 | 78 | -0.9 | -63 | 94
CCCCCCC(=O)c1c(O)n(-c2ccccc2OC)c(=O)[nH]c1=O (tested in a mixture with another compound) | . | i | 1.1 | 103 | . | . | .
CC(=O)c1ccc(OC(NC(=O)Cc2ccccc2)C(Cl)(Cl)Cl)cc1 (stereo not drawn) | -6 | i | 1.2 | 101 | -2.5 | . | .
CN1CCN(C(=O)COc2ccc(S(=O)(=O)N(C)Cc3ccccc3)cc2)CC1 | -1 | i | 1.1 | 96 | -0.6 | 50 | 96
CCOC(=O)c1ccc(N=Cc2c(O)n(-c3ccccc3F)c(=S)[nH]c2=O)cc1 | 4 | i | 0.97 | 109 | -1.0 | 3 | 95
COCCCn1c(N)c(C(=O)NCc2ccco2)c2nc3ccccc3nc21 | . | i | 1.1 | 98 | . | . | .
CCNC(=S)NCCC1=c2ccccc2=N/C1=C\c1c(O)n(C)c(=O)n(C)c1=O | . | i | 1.3 | 86 | . | . | .
CCCCn1c(O)c(C(CC)=Nc2ccc(C(=O)O)cc2)c(=O)[nH]c1=O | 0 | i | 0.87 | 105 | -0.8 | 20 | 79
O=C1NC(=O)N(CCc2ccc(F)cc2)C(=O)/C1=C/c1cccs1 | 0 | i | 0.99 | 83 | . | 5 | 76
CC(=O)N1CN2CN(C(C)=O)CC(C(=O)c3ccccc3)(C2)C1 | -10 | i | 0.61 | 79 | -0.9 | -16 | 119
Cc1ccc2c(c1)CC1(CN2C)C(=O)NC(=O)N(CCc2ccccc2)C1=O (stereo not drawn) | -4 | i | 0.88 | 101 | 0.4 | 0 | 172
COCCOC(=O)c1c(C)oc2ccc(OC(=O)N(C)C)cc12 | -1 | i | 0.86 | 97 | -0.5 | . | .
CNC(=O)O/N=C(\C)Cc1nnn(-c2cc(C)on2)n1 | . | i | 1.2 | 104 | . | . | .
O=C(c1cc2cc3ccc(Cl)cc3nc2o1)N1CCC2(CC1)OCCO2 | -4 | i | 0.86 | 104 | -1.2 | 84* | 143*
Cc1sc2c(c1C)C(c1cccs1)=NCC(=O)N2CC(=O)NCc1cccs1 | -15 | i | 0.83 | 102 | -1.2 | . | .
Cc1ccsc1C(=O)C1CCCN(Cc2cnc(N3CCCC3)s2)C1 (stereo not drawn) | -5 | i | 0.95 | 105 | . | . | .
O=P(NCc1ccccc1)(Oc1ccccc1)Oc1ccccc1 | -3 | i | 1.1 | 114 | -1.3 | . | .
O=c1[nH]c(=O)n(-c2ccccc2Cl)c(O)c1C=NCCN1CCCCC1 | -4 | i | 0.94 | 102 | -0.9 | 0 | 30
O=C(Oc1ccc([N+](=O)[O-])cc1)N1CCC(N2CCCCC2)CC1 | -2 | i | 0.98 | 104 | -2.1 | -20 | 58
CO[C@H]1[C@@H](OC)CC(OC2OC(CO)C(O)C(O)C2O)/C(=C\C#N)[C@@H]1O (stereo partly drawn) | -5 | i | 0.63 | 82 | -1.8 | 5 | 80
Cc1cc(C(=O)Nc2ccc3c(c2)OCCO3)nn1C(C)(C)C | . | i | 0.97 | 99 | . | . | .
CCC(CO)Nc1ccc([N+](=O)[O-])c2cccnc12 (stereo not drawn) | 3 | i | 0.9 | 102 | -4.6 | . | .
O=C(C(=O)N1CCOCC1)c1cn(Cc2ccccc2Cl)c2ccccc12 | -2 | i | 0.96 | 100 | . | . | .
CCOP(=O)(OCC)C(O)c1ccc(OC)c(OC)c1 (stereo not drawn) | 1 | i | 1.1 | 67 | -3.0 | -58 | 71
CC(=NCCC1=CCCCC1)c1c(O)n(-c2ccccc2)c(=O)[nH]c1=O | . | i | 1 | 120 | . | . | .
CC(=O)CC(=O)C1C(=O)N(C)C(=O)N(C)C1=O | 1 | i | 0.94 | 107 | . | 6 | 143
c1ccc(CC(NCc2ccco2)c2ccccc2)cc1 (stereo not drawn) | -6 | i | 0.94 | 108 | . | -183 | 56
CCN1CCN(Cc2cc(C(C)(C)C)c(O)c(C(C)(C)C)c2)CC1 | 6 | . | . | 115 | -2.2 | . | .
CNC(=O)c1cccn(Cc2cc(C(F)(F)F)cc(C(F)(F)F)c2)c1=O | -5 | i | 1 | 100 | . | . | .
CCc1ccc(C2=NN(CCC(=O)N3CCC4(CC3)OCCO4)C(=O)CC2)cc1 | -1 | i | 1 | 100 | . | 20 | 112
CCN(CC)c1ccc(N=Cc2c(O)n(Cc3ccccc3)c(=O)[nH]c2=O)cc1 | -3&-10 | ? | . | 100&100 | -1.5&-1.8 | -11&-64 | 57&96
CCCCn1c(NC(=O)c2ccco2)c(C(=O)OCC)c2nc3ccccc3nc21 | -5 | i | 1.2 | 107 | 0.0 | . | .
COc1ccc(C(C)=O)cc1CC(C(=O)c1ccc(C)c(C)c1)N(C)C (stereo not drawn) | -2 | i | 0.87 | 137 | -1.1 | . | .
O=C(N/N=C/c1c(O)n(CCc2ccc(F)cc2)c(=O)[nH]c1=O)c1ccncc1 | 0 | i | 0.95 | 99 | . | -33 | 64

Sorted by molecular weight (high to low): some entries from above
SMILES | PKD1 kinase inh | HSV replic up | HSV replic up primary fold | RGS16-Gao HTS | GALR2 agonist | Insulin prom inh | Insulin prom inh cell count
CCCCn1c(NC(=O)c2ccco2)c(C(=O)OCC)c2nc3ccccc3nc21 | -5 | i | 1.2 | 107 | 0.0 | . | .
CCN(CC)c1ccc(N=Cc2c(O)n(Cc3ccccc3)c(=O)[nH]c2=O)cc1 | -3&-10 | ? | . | 100&100 | -1.5&-1.8 | -11&-64 | 57&96
CNC(=O)c1cccn(Cc2cc(C(F)(F)F)cc(C(F)(F)F)c2)c1=O | -5 | i | 1 | 100 | . | . | .
COc1ccc(C(C)=O)cc1CC(C(=O)c1ccc(C)c(C)c1)N(C)C (stereo not drawn) | -2 | i | 0.87 | 137 | -1.1 | . | .
